SARS PLpro yeast = inhibitors of SARS-CoV papain-like protease in yeast; S. cerevisiae expressing SARS-CoV PLpro, growth rescue; control for the full effect not named in the record; Potency, µM (top dose mostly 32.9 µM), for inactives: top-dose activity, positive = growth rescue; 0.19% of 330,000 active; AID 485353; active means well fitted rising curve with a large enough effect; inconclusive means small, poorly fitted or top-dose-only effect; inactive means no such curve, though single readings can be large or run the other way; further: 0% is about no effect; nearly all actives have a fitted effect of over 55% in size; growth read by luminescence after 48 h
NS1 inh = influenza NS1 inhibition; AID 2326; Potency, µM (doses to about 46.1 µM), for inactives: top-dose activity, positive = more growth; 0.4% of 270,000 active; S. cerevisiae slowed by influenza A NS1, growth recovery by OD600; active means well fitted rising curve with a large enough effect; inconclusive means small, poorly fitted or top-dose-only effect; inactive means no such curve, though single readings can be large or run the other way; further: nearly all actives have a fitted effect of over 50% in size
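A cell-based growth assay was used: compounds that relieve NS1-induced slow growth of budding yeast raise OD600. Assay medium was yeast nitrogen base with ammonium sulphate and -URA supplement, pH 6.0, with 2% galactose.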
Cruzain Triton = cruzain (T. cruzi) inhibition with detergent; purified cruzain, Z-FR-AMC fluorescence, 0.01% Triton; P25779; 0.43% of 200,000 active; Potency, µM, inactives show max response, negative = inhibition, actives largely listed as inhibitors; AID 1478;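 further: plate controls were neutral wells for no effect and buffer without enzyme for full effect; nearly all actives have a fitted effect of over 40% in size; top concentration of the series not given in the record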
Target sequence (P25779 123-467 limits assumed): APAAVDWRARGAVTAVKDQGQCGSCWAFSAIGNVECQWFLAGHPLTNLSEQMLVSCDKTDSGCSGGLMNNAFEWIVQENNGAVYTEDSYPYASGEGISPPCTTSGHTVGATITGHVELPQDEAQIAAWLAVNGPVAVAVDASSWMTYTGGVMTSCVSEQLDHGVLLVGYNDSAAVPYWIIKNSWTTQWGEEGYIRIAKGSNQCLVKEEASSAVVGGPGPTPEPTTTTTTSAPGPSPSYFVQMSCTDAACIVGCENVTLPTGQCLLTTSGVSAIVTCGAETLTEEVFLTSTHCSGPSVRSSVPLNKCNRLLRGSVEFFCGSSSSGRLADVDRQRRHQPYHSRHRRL
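Cruzain (1.5 nM) preincubated 15 min at RT with compound in 100 mM sodium acetate pH 5.5, 5 mM DTT, 0.01% Triton X-100. Reaction started with 2 uM Z-FR-AMC; AMC fluorescence (ex 360/em 450 nm) change over 60 s gave rate.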
Lassa entry inh = inhibitors of Lassa virus binding or cell entry. Lassa virus pseudotype entry inhibition, cell reporter; control for the full effect not named in the record. Potency, µM (top dose mostly 37.9 µM), for the others: at the top dose activity change, negative = inhibition, hits mostly inhibitors. 1.2% of 300,000 active. AID 540256; active means well fitted inhibition curve with a large enough effect; inconclusive means small, poorly fitted or top-dose-only effect, or effect the other way; inactive means flat fitted curve, though single readings scatter; tested in HEK293 cells; further: on the % scale 0 is the no-effect control and ±100 the full control effect; nearly all actives have a fitted effect of over 50% in size; luciferase read-out
RE007 growth inh = less growth of the S. pombe RE007 Vpr strain | S. pombe RE007 Vpr strain, BacTiter-Glo ATP luminescence, 24 h; control for the full effect not named in the record | Potency, µM (series often up to 92.2 µM), for the others: top-dose activity change, negative = less growth | 0.21% of 360,000 active; active = well fitted falling curve with a large enough effect; inconclusive = small, poorly fitted or top-dose-only effect; inactive = no such curve, though single readings can be large or run the other way;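 further: on the % scale 0 is the no-effect control and ±100 the full control effect; nearly all actives have a fitted effect of over 50% in size; the assay follows cell death caused by Vpr and the record does not say whether a fall means rescue or toxicity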
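Fission yeast RE007 carrying one integrated HIV-1 vpr copy, seeded at OD 0.01 in PMG+AL medium with 23 nL pinned compound. Grown 24 h at 30 degrees; viability read by BacTiter-Glo luminescence after 5 min.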
Cruzain inh noDet = cruzain (T. cruzi) inhibition without detergent; Potency, µM, inactives show max response, negative = inhibition, hits mostly inhibitors; AID 1476; purified cruzain, Z-FR-AMC fluorescence, no detergent; 2.3% of 200,000 active; P25779;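 further: plate controls were enzyme without inhibitor for no effect and buffer without enzyme for full effect; nearly all actives have a fitted effect of over 40% in size; top concentration of the series not given in the record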
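Detergent-free condition (0.00005% Triton X-100) in acetate buffer pH 5.5 with DTT. 1.5 nM enzyme and compound were pre-mixed 15 min, then 2 uM Z-FR-AMC substrate added; reaction progress from fluorescence change between first and third reads (60 s).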
MARV entry inh = blocks Marburg virus binding to or entry into cells. Marburg virus pseudotyped entry inhibition, cell reporter; control for the full effect not named in the record; about a third of the inactives were read at about 46 µM. Potency, µM (top dose mostly 37.8 µM), for inactives: at the highest dose activity change, negative = inhibition, usual class: inhibitors. 1.8% of 300,000 active. AID 540276; active = well fitted inhibition curve with a large enough effect; inconclusive = small, poorly fitted or top-dose-only effect, or effect the other way; inactive = flat fitted curve, though single readings scatter; tested in HEK293 cells; about a fifth of its hits are not listed in these tables; further: on the % scale 0 is the no-effect control and ±100 the full control effect; luciferase read-out
StopGo reporter = lowers the luciferase signal of an FMDV 2A StopGo reporter; human cells with a luciferase reporter of 2A StopGo recoding; control for the full effect not named in the record; Potency, µM (titrated, usually from 57.9 µM), inactives show top-dose signal change, negative = less light; 1.2% of 410,000 active; AID 1159524; active = well fitted falling curve with a large enough effect; inconclusive = small, poorly fitted or top-dose-only effect; inactive = no such curve, though single readings can be large or run the other way; tested in HEK293T cells; further: on the % scale 0 is the no-effect control and ±100 the full control effect; nearly all actives have a fitted effect of over 45% in size; luciferase light after 4 h
Active calls of the source: *; ? = inconclusive; nt = not tested or not shown; [ ] = another dose, or the depositor's remark. Unless noted, the call rests on the fitted dose curve; in most records, active means well fitted curve in the direction sought with a large enough effect; inconclusive means small, poorly fitted or top-dose-only effect, or another doubt; inactive means no such curve, though single readings can be large; an effect the other way counts as inactive or inconclusive. Potency means the concentration at half of the fitted maximal effect.

Preview, six compounds:
SMILES	SARS PLpro yeast	NS1 inh	Cruzain Triton	Lassa entry inh	RE007 growth inh	Cruzain inh noDet	MARV entry inh	StopGo reporter
COc1ccc(-c2ccc(/C=N/N3C(=O)C4C5C=CC(C6CC56)C4C3=O)o2)c([N+](=O)[O-])c1 (stereo not drawn)	-15.6%	5.4%	-4.0%	-19.2%	2.9%	?	?	?
O=C(Cn1cc(S(=O)(=O)N2CCN(c3ccccc3F)CC2)c2ccccc2c1=O)NCCCN1CCCCCC1	-2.3%	nt	nt	5.4%	-3.6%	nt	?	-6.3%
CC1CC(O)(CC(O)(c2ccccc2)c2ccccc2)C(C)CN1C (stereo not drawn)	1.7%	-5.5%	nt	nt	8.1%	nt	nt	-3.7%
Cc1cc(C)c2nc(N3CCN(C(=O)c4cccs4)CC3)sc2c1	14.3%	nt	nt	?	?	nt	-2.1%[46.1 µM]	-13.5%
COc1ccc(OC)c(S(=O)(=O)N2CCCC(C(=O)N3CCOCC3)C2)c1 (stereo not drawn)	-1.4%	-0.1%	nt	-0.8%	-1.4%	nt	-14.0%	0.6%
CCOC(=O)c1ccc(NC(=O)CN2CCN(C(=O)c3ccco3)CC2)cc1	-1.5%	-11.3%	nt	-27.3%	10.4%	nt	?	-20.8%

All compounds of this part, repeating the preview:
SMILES	SARS PLpro yeast	NS1 inh	Cruzain Triton	Lassa entry inh	RE007 growth inh	Cruzain inh noDet	MARV entry inh	StopGo reporter
COc1ccc(-c2ccc(/C=N/N3C(=O)C4C5C=CC(C6CC56)C4C3=O)o2)c([N+](=O)[O-])c1 (stereo not drawn)	-15.6%	5.4%	-4.0%	-19.2%	2.9%	?	?	?
O=C(Cn1cc(S(=O)(=O)N2CCN(c3ccccc3F)CC2)c2ccccc2c1=O)NCCCN1CCCCCC1	-2.3%	nt	nt	5.4%	-3.6%	nt	?	-6.3%
CC1CC(O)(CC(O)(c2ccccc2)c2ccccc2)C(C)CN1C (stereo not drawn)	1.7%	-5.5%	nt	nt	8.1%	nt	nt	-3.7%
Cc1cc(C)c2nc(N3CCN(C(=O)c4cccs4)CC3)sc2c1	14.3%	nt	nt	?	?	nt	-2.1%[46.1 µM]	-13.5%
COc1ccc(OC)c(S(=O)(=O)N2CCCC(C(=O)N3CCOCC3)C2)c1 (stereo not drawn)	-1.4%	-0.1%	nt	-0.8%	-1.4%	nt	-14.0%	0.6%
CCOC(=O)c1ccc(NC(=O)CN2CCN(C(=O)c3ccco3)CC2)cc1	-1.5%	-11.3%	nt	-27.3%	10.4%	nt	?	-20.8%
COC(=O)C(CC(C)C)NC(=O)c1ccc([N+](=O)[O-])c(C)c1 (stereo not drawn)	-1.1%	-15.8%	-2.0%	-8.4%	-9.3%	-14.0%	-2.1%[46.1 µM]	-13.3%
CCCCn1c(N)c(N(CCC(C)C)C(=O)C2CC(=O)N(c3ccc4c(c3)OCCO4)C2)c(=O)[nH]c1=O (stereo not drawn)	-0.1%	3.9%	nt	0.5%	-8.1%	nt	-8.9%[46.1 µM]	-2.2%
O=S(=O)(c1ccc(NC(=S)Nc2ccc3c(c2)OCO3)cc1)N1CCOCC1	-20.9%	10.5%	-7.7%	14.8%	nt	5.1%	-12.3%	22.1%
O=[N+]([O-])c1ccc(-c2csc(N/N=C/c3cccnc3)n2)cc1	-1.3%	6.2%	nt	nt	10.8%	nt	nt	-16.1%
O=C(Cc1cccc2ccccc12)N1CCN(c2ncccn2)CC1	0.9%	-2.2%	nt	16.7%	-10.3%	nt	4.4%[46.1 µM]	-8.9%
CC1CCCCN1S(=O)(=O)c1cn(C)c(=O)n(C)c1=O (stereo not drawn)	0.4%	0.2%	nt	nt	2.0%	nt	nt	-19.0%
CC(=O)c1ccc(OCC(O)CN2CCN(Cc3ccccc3)CC2)cc1 (stereo not drawn)	1.8%	3.5%	-4.8%	nt	0.4%	-9.8%	nt	0.0%
C/C(=N/NC(=O)CNC(=O)c1cccnc1)c1ccco1	1.0%	-1.8%	nt	16.6%	11.2%	nt	11.1%[46.1 µM]	14.0%
Cc1ccc(-c2noc(COC(=O)c3ccco3)n2)cc1	2.7%	nt	nt	0.3%	-19.2%	nt	26.7%	55.9%[activator]
O=C(NC(C(=O)c1ccccc1)N1CCOCC1)c1cccs1 (stereo not drawn)	3.6%	13.1%	-1.7%	?	13.8%	-2.1%	14.7%	55.9%[activator]
CCOC(=O)/C=C1\SCC(=O)N1CC(=O)NCCc1ccc(F)cc1	-0.2%	nt	nt	-16.3%	2.8%	nt	?	6.0%
COc1ccc(C(=O)O)cc1S(=O)(=O)NCCCN1CCCC1=O	-12.6%	-1.6%	6.3%	0.4%	56.2%	-6.9%	?	-12.9%
CCc1nc(CNC(=O)c2cc(OC)c(OC)c(OC)c2)no1	1.1%	0.6%	-1.6%	9.8%	-6.8%	2.7%	?	-13.5%
Cc1csc2nc(-c3cccc(NC(=O)c4ccccc4F)c3)cn12	nt	nt	0.3%	3.7%[46.1 µM]	nt	-18.5%	nt	3.6%
CCC(C)NC(=O)Cn1c(=O)ccc2cc(S(=O)(=O)N3CCCC3)ccc21 (stereo not drawn)	nt	nt	-1.1%	-5.3%[46.1 µM]	nt	-7.3%	nt	-8.6%
N#Cc1cc2c(nc1SCc1cccc(Cl)c1)CCCCC2	11.4%	0.2%	-5.5%	0.0%	1.4%	-11.3%	-15.9%	0.3%
O=C1C(Cl)=C(N2CCN(Cc3ccccc3)CC2)C(=O)N1Cc1ccccc1	-5.4%	-13.8%	1.8%	-16.0%	-16.8%	9.5%	-11.7%	?
CCN(CC(=O)Nc1ccccc1C(F)(F)F)C(=O)CCc1nc2sc3c(c2c(=O)[nH]1)CCCC3	nt	nt	nt	0.4%	8.1%	nt	-15.1%	-18.4%
CC1CCN(CCCNC(=O)C2CCCN(c3ncnc4c3nc3n4CCCCC3)C2)CC1 (stereo not drawn)	10.5%	-5.3%	nt	17.6%[46.1 µM]	-7.7%	nt	20.8%[46.1 µM]	0.5%
Continuation.
SMILES	SARS PLpro yeast	NS1 inh	Cruzain Triton	Lassa entry inh	RE007 growth inh	Cruzain inh noDet	MARV entry inh	StopGo reporter
CCCCNC(=O)CSc1nc2ccc(NC(=O)CSc3nnc(COc4ccccc4C)n3C)cc2s1	-12.0%	-8.6%	-3.1%	2.7%	-21.5%	-12.8%	3.7%	-25.9%
CCC(=O)N1N=C(c2cccs2)CC1c1ccc(OC)cc1 (stereo not drawn)	3.1%	4.1%	nt	nt	10.9%	nt	nt	22.7%
COc1ccc(NC(=O)c2nc(C)n(-c3ccc([N+](=O)[O-])cc3)n2)cc1	-4.7%	nt	nt	-0.1%[46.1 µM]	3.6%	nt	0.2%[46.1 µM]	19.3%
CCOC(=O)N1CCN(c2ncc3c(n2)CC(c2ccccc2O)CC3=O)CC1 (stereo not drawn)	nt	nt	-0.6%	?	nt	-9.1%	1.8%[46.1 µM]	22.4µM*
O=C(CSc1nc2cc(Cl)ccc2o1)NCCc1ccccc1	-15.8%	-14.7%	0.2%	26.9%[14.3 µM]	12.5%	-9.0%	3.1%	?
O=C(NCc1ccco1)c1cc(-c2ccc(F)cc2)on1	-0.8%	0.5%	7.3%	-14.3%	4.6%	?	?	68.9%[activator]
COc1cc2[nH]c(=O)n(CCC(=O)NCc3cccnc3)c(=O)c2cc1OC	-2.4%	6.9%	6.1%	2.9%	8.4%	-1.3%	6.5%	-19.1%
CC(C)OCCCNC(=O)C1CC(=O)N(C2CCCCCCC2)C1 (stereo not drawn)	-9.2%	-3.1%	3.2%	6.8%	-1.7%	4.7%	0.9%	-8.1%
COc1cccc(CN2C(=O)NC3(CCCCCC3)C2=O)c1	-2.3%	6.6%	nt	19.8%	-13.2%	nt	-2.2%[46.1 µM]	2.9%
Cc1cccc(OCCSc2nc3ccc(NC(=O)c4cccs4)cc3s2)c1	nt	nt	-0.8%	-19.9%[46.1 µM]	nt	-6.8%	-20.2%[46.1 µM]	?
Cc1ccc(-n2ncc(C(=O)NC3CC3)c2C2CCN(C(=O)OC(C)(C)C)CC2)cc1	1.4%	-7.2%	nt	nt	10.4%	nt	nt	-6.1%
COc1ccc(C(=O)OCn2nnc3ccccc3c2=O)cc1[N+](=O)[O-]	1.6%	nt	nt	11.9%	2.6%	nt	?	38.4%[activator]
Cc1ccc(NC(=O)COC(=O)Cc2cccs2)cc1S(=O)(=O)N1CCOCC1	0.3%	0.3%	nt	-4.6%	0.9%	nt	2.8%	0.0%
O=C(CSc1n[nH]c(=O)n1Cc1ccccc1)Nc1ccc(F)c(F)c1F	10.9%	41.3%	nt	24.0%[46.1 µM]	-15.9%	nt	?	?
CCCOC(=O)c1ccc(Oc2cn[nH]c2-c2ccc(O)cc2O)cc1	-5.1%	8.8%	nt	nt	8.7%	nt	nt	?
Cc1ccc(CNc2nc(-c3ccco3)nn2C(=O)c2ccccc2[N+](=O)[O-])cc1	nt	nt	-6.5%	?	nt	-18.2%	-27.5%[46.1 µM]	35.0%[activator]
Cc1ccc(S(=O)(=O)NC(CC(=O)O)c2ccc(F)cc2)cc1 (stereo not drawn)	7.1%	44.2%	nt	5.1%[46.1 µM]	4.7%	nt	-19.5%[46.1 µM]	4.8%
C=C(C)C(=O)Nc1cccnc1Oc1ccc(F)cc1	-0.9%	0.1%	nt	-12.2%	22.0%	nt	26.8%	-17.1%
COc1ccc(CCNC(=O)NC2CCCCC2)cc1	5.4%	6.7%	-1.4%	?	29.9%	-4.8%	-7.2%	31.6%[activator]
COC(=O)CNC(=O)c1cc(-c2ccncc2)nc2ccccc12	16.6%	20.3%	nt	-6.1%	13.7%	nt	-1.6%[46.1 µM]	-29.6%
CCc1ccc(OCC(=O)N/N=C(\C)c2ccccc2OC(F)F)cc1	-0.6%	-0.8%	-10.4%	-10.4%	3.2%	0.9%	?	-21.8%
COc1ccc2[nH]c3nc(SC(C)C)nnc3c2c1	2.5%	8.1%	-1.0%	2.24µM*	-28.0%	?	?	12.6µM*
O=C(CN1CCN(c2ccc(C(F)(F)F)cn2)CC1)Nc1ccc2c(c1)OCO2	3.3%	-5.3%	nt	nt	-11.4%	nt	nt	0.0%
